# Assay outcomes deposited in PubChem by PCMD.
# Calb biofilm kill – clotrimazole potentiators killing C. albicans biofilm, primary screen, 4-compound mixtures; 0.02% of 120,000 active; C. albicans biofilm persisters + clotrimazole, fluorescence viability; primary screen in compound mixtures of four per well; AID 1242, 2008; inhibition, % at 7.6 µM;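 active = inhibition above 30.3% in the primary screen of four-compound pools, then above 30% when the compound was retested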;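 note: compounds exposed to preformed 24 h biofilms for 48 h; the number belongs to the whole pool; some results filed as inactive read as strong as hits; inactives centre near 12; 0% = biofilm with clotrimazole alone and 100% = kill control; retested singly at about 60 µM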
#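 Test system: C. albicans biofilms. Buffer or medium: RPMI/MOPS medium, pH 7.0. Timing: 48 h compound exposure at 37 °C. Technique: Alamar Blue fluorescence. Evaluation: percent inhibition of biofilm viability.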
# Starred values were filed as active, the others as inactive. A portion of the library; rates above refer to the full screens.
No.	Structure	Calb biofilm kill
1	COC(=O)c1cc2c(ccn2-c2ccc(F)cc2)n1CC(=O)C(C)(C)C	11.9
2	Cc1onc(-c2c(Cl)cccc2Cl)c1COC(=O)c1ccc(Cl)cc1	20.8
3	O=C(c1ccc(Cl)cc1[N+](=O)[O-])N1CCc2ccccc2C1	10.5
4	CCN1CCN(C(C)C(=O)NC2CCCCC2)CC1 (centres undefined)	12.2
5	COC(=O)[C@H](CC(C)C)NC(=O)N1CCC(C)CC1	14.3
6	C/C=C/C(=O)Nc1cccc(C2=NOC3(C2)C[C@@H](C(N)=O)N(C(=O)c2cc([N+](=O)[O-])cc([N+](=O)[O-])c2C)C3)c1 (some centres undefined)	15.8
7	O=C(Nc1ccc(Oc2ccc3c(c2)C(=O)N(c2ccc(O)cc2)C3=O)cc1)c1cccs1	15.7
8	O=C1C(=O)c2ccccc2C(O)=C1c1cccc([N+](=O)[O-])c1	17.9
9	CCOc1ncccc1C(=O)OCC(=O)c1ccccc1	8.6
10	CCc1ccc(NC(=O)CSCc2ccc(C(=O)O)cc2)cc1	9.8
11	Cc1nonc1CN(C)C(=O)CC1C(=O)NCCN1Cc1ccccc1C(F)(F)F (centres undefined)	17.9
12	CN(CCc1ccccn1)C(=O)CCC1CCCN(Cc2ccccc2OC(F)F)C1 (centres undefined)	8.4
13	CCCCOc1ccc(-c2csc(N)n2)cc1[N+](=O)[O-]	4.3
14	O=C(NC(=S)Nc1ccccc1N1CCOCC1)c1ccc([N+](=O)[O-])cc1	6.8
15	O=C(c1ccccc1)N1CCN(Cc2ccccc2C(F)(F)F)CC1	16.1
16	O=C(O)CC12CC3CC(C1)CC(n1ncc(NCC4CCCO4)c(Cl)c1=O)(C3)C2 (centres undefined)	12.5
17	C/C(=N/NC(=O)CCc1ccccc1)c1ccco1	12.3
18	COc1ccc(-c2c(C#N)sc(C(N)=O)c2-c2ccc(OC)cc2)cc1	19.4
19	CCN(C(=O)CN1CCCCC1)C1(C)C(=O)c2ccccc2C1=O	13.1
20	COc1ccc(NS(=O)(=O)c2cc(NC(=O)c3cccnc3Cl)ccc2N2CCCC2)cc1	21.8
21	COC(=O)Cc1ccc(NC(=S)N2CCCC(C)C2)cc1 (centres undefined)	7.6
22	Nc1ccc(/C=C/C(=O)c2cccs2)cc1	21.2
23	CCN(Cc1ccccc1)c1ccc(N=Nc2nn(C)c(C)c2[N+](=O)[O-])cc1	11.0
24	CC(=O)c1ccc(N2CCN(c3ccc(S(=O)(=O)NCCCN(C)C)cc3[N+](=O)[O-])CC2)cc1	16.3
25	CC(C)CCNC(=O)C1CCC(CNc2c(N3CCC(C)CC3)c(=O)c2=O)CC1 (centres undefined)	23.2
26	Cn1ncc2c(NNC(=O)c3ccc(Cl)cc3Cl)ncnc21	0.2
27	CN(C)C(=O)C(=O)c1cccn1-c1cccc(Cl)c1C#N	15.6
28	NNC(=O)c1ccc2c(c1)S(=O)(=O)NNC2=O	12.3
29	c1ccc(-c2ccccc2OCCN2CCCCC2)cc1	3.2
30	COc1cc(C(=O)NC(=S)Nc2csc(-c3ccc(F)cc3)n2)cc(OC)c1OC	20.8
31	COc1ccc(-c2csc(NC(=O)c3ccc(S(=O)(=O)N4CCc5ccccc5C4)cc3)n2)cc1	11.2
32	O=C(c1ccccc1)c1ccc2c(c1)OCCCO2	0.1
33	CS(=O)(=O)c1cnc(-c2ccccc2)nc1-c1ccccc1Cl	5.7
34	COC(CN(C(=O)CCl)C(C(=O)NC1CCCCC1)c1ccc(Cl)cc1)OC (centres undefined)	12.0
35	CCNc1nc(C23CC4CC(CC(C4)C2)C3)cs1	18.2
36	Cc1ccnc(NC(=O)c2cc3ccccc3oc2=O)c1	11.7
37	COC(=O)Cc1c(C(=O)OC)nnn1-c1ccc(OC)cc1	7.2
38	CCCc1cc(=O)[nH]c(SCC(=O)c2cc(C)n(CC(F)(F)F)c2C)n1	18.8
39	N/C(=N\OC(=O)c1cccs1)c1ccc(Cl)cc1	15.6
40	Cn1cc(CC(=O)NCCN2CCOCC2)c2ccccc21	19.7
41	N#CSCC(=O)c1cccc2ccccc12	21.7
42	CNC(=S)N1N=C(c2ccccc2)CC1c1ccccc1Cl (centres undefined)	-2.1
43	O=C(NC(=O)N1CCN(C(c2ccccc2)c2ccccc2)CC1)c1ccccc1	13.1
44	COc1ccc(CNCC(O)(c2ccccc2)c2ccccc2)cc1OC	11.9
45	COC(=O)c1ccc(CN(c2ccccc2Cl)S(C)(=O)=O)cc1	13.9
46	COc1ccc2nc3cc(Cl)ccc3c(C#N)c2c1	15.5
47	OCCC1CN(Cc2ccccn2)CCN1C1CCCC1 (centres undefined)	15.8
48	COc1ccc(C(CNc2ccc(S(=O)(=O)N3CCCC3)cc2[N+](=O)[O-])N2CCCC2)cc1 (centres undefined)	5.1
49	CC(=O)Nc1sc(/C(C#N)=C\c2cccc(Cl)c2)nc1-c1ccc(C)cc1	21.8
50	CC1(C)Cc2nc(-c3ccccc3)nc(NNC(=O)c3ccco3)c2CO1	10.4
51	Cc1cc(N/N=C\c2ccccc2)nc(-c2ccccc2O)n1	14.4
52	COc1ccc(-c2nc(N)sc2C2(O)C(=O)Nc3c(Br)cc(F)cc32)cc1OC (centres undefined)	-8.5
53	COc1ccc(N2C(=O)CC(Sc3n[nH]c(-c4cccc(C)c4)n3)C2=O)cc1 (centres undefined)	-0.1
54	Cc1ccc2c(Cl)c(C(=O)Nc3ccc4c(c3)OCO4)sc2c1	0.2
55	O=C(O)c1ccccc1NS(=O)(=O)c1ccc2c(c1)OCCO2	29.1
56	COc1ccccc1N(CC(O)Cn1c2ccccc2c2ccccc21)S(=O)(=O)c1ccccc1 (centres undefined)	4.3

# (more compounds)
No.	Structure	Calb biofilm kill
57	Cc1c(Cl)cccc1Nc1nc(N)nc(CSC(=S)N2CCOCC2)n1	20.1
58	Cn1cnnc1Sc1ccc(CN2CCN(C3CCCC3)C(CCO)C2)o1 (centres undefined)	-1.8
59	O=C(O)COc1ccccc1/C=N/NC(=O)CN1CCN(Cc2ccc(Cl)cc2)CC1	16.5
60	S=C(NCCc1ccccc1)N/N=C/c1c(Cl)cccc1Cl	15.4
61	COc1ccc(OCc2csc(N)n2)cc1	12.7
62	CCN(CC)/C(Sc1ccccc1)=C(/C(Cl)=C(Cl)Cl)[N+](=O)[O-]	14.2
63	S=C1NCCOCCNC(=S)NCCOCCOCCN1	13.0
64	O=[N+]([O-])c1ccc(CNC2CCCc3ccccc32)cc1 (centres undefined)	10.3
65	CCOC(=O)C1CCN(c2c(Nc3cc(C)cc(C)c3)c(=O)c2=O)CC1	19.2
66	CCN(CC)S(=O)(=O)c1ccc(NC(=O)c2nc3nc(C)cc(C)n3n2)cc1	12.5
67	Clc1ccc(OCCCn2ccnc2)c(Br)c1	7.5
68	CC(=O)N[C@@H](C)C(=O)OC(C)C(=O)Nc1cccc([N+](=O)[O-])c1 (some centres undefined)	-3.3
69	FC(F)(F)c1ccccc1NC(=S)Nc1cccc(Cl)c1	12.1
70	CC(C(=O)Nc1ccccc1-c1ccccc1)N1CCN(C(=O)c2ccccc2)CC1 (centres undefined)	23.9
71	COc1ccccc1-c1ccc(/C=N/O)o1	24.1
72	Cc1cc(SCC(=O)OC/C(O)=C(\C#N)c2nc3ccccc3[nH]2)c(C)cc1Br	28.7
73	COc1cccc(C(=O)NCC(=O)NNc2ncnc(N)c2[N+](=O)[O-])c1	9.7
74	COc1ccc(/C=C/C(=O)O)cc1S(=O)(=O)NC1CCS(=O)(=O)C1 (centres undefined)	1.2
75	Cc1ccc(C)c(NC(=O)C(Sc2nnc(-c3cccs3)o2)c2ccccc2)c1 (centres undefined)	21.9
76	Cc1ccc2cc(CN(c3ccccc3)S(=O)(=O)c3ccccc3)c(=O)[nH]c2c1	16.3
77	Cc1nc2sc(C(c3cccs3)N3CCN(Cc4ccccc4)CC3)c(O)n2n1 (centres undefined)	17.1
78	COc1ccc(Cc2n[nH]c(=S)o2)cc1	9.6
79	O=c1[nH]c(CSc2nnc(-c3ccccc3)n2-c2ccccc2)nc2ccccc12	5.3
80	Nc1ncnc2nc(SCCC(=O)O)[nH]c12	18.0
81	CCCCC(=O)NC(c1ccco1)c1cc(Cl)c2cccnc2c1O (centres undefined)	16.5
82	Cc1c(C2Nc3ccccc3C(=O)N2O)cnn1C (centres undefined)	8.7
83	Cc1ccc(C)c(Nc2c(F)c(F)c(F)c(F)c2C(=O)O)c1	18.5
84	Fc1cccc(Cl)c1/C=N/Nc1ccccn1	3.5
85	COC(=O)c1cccc(NC(=O)C2COc3ccccc3O2)c1C (centres undefined)	8.9
86	COc1cccc(NC(=O)C(c2ccccc2)N2CCNC(=O)C2)c1 (centres undefined)	9.1
87	CCOC(=O)C1=NN(c2ccc(OC)cc2)C2C(=O)N(c3ccccc3OC)C(=O)C12 (centres undefined)	24.3
88	C=CCc1ccc(OCCCCNC(C)CC)c(OC)c1 (centres undefined)	12.5
89	CC1(C(=O)NCCN2CCOCC2)C=CC2(CCCCC2)N1C(=O)c1ccccc1 (centres undefined)	8.1
90	O=[N+]([O-])c1ccc(N2CCOCC2)cc1N1CCCCC1	12.2
91	Cc1ccc(-c2csc(/C(C#N)=C(\O)CCl)n2)cc1	19.2
92	O=C(CSc1nnc(NC(=O)Cc2ccccc2)s1)NCC1CCCO1 (centres undefined)	18.9
93	Cc1cccc(C2N=C(N)Nc3nc4ccccc4n32)c1 (centres undefined)	29.8
94	O=C(Nc1ccc(-c2nc3ccccc3o2)cc1)c1cc(-n2cnnc2)ccc1Cl	-8.8
95	O=c1cccccc1NN=C1CCCCC1	16.7
96	COc1cccc(/C=C2\N=C(C3CCCCC3)OC2=O)c1OC	0.6

# By substructure: the entries above containing an aryl thioether with sulfur outside any ring
No.	Structure	Calb biofilm kill
38	CCCc1cc(=O)[nH]c(SCC(=O)c2cc(C)n(CC(F)(F)F)c2C)n1	18.8
53	COc1ccc(N2C(=O)CC(Sc3n[nH]c(-c4cccc(C)c4)n3)C2=O)cc1 (centres undefined)	-0.1
58	Cn1cnnc1Sc1ccc(CN2CCN(C3CCCC3)C(CCO)C2)o1 (centres undefined)	-1.8
62	CCN(CC)/C(Sc1ccccc1)=C(/C(Cl)=C(Cl)Cl)[N+](=O)[O-]	14.2
72	Cc1cc(SCC(=O)OC/C(O)=C(\C#N)c2nc3ccccc3[nH]2)c(C)cc1Br	28.7
75	Cc1ccc(C)c(NC(=O)C(Sc2nnc(-c3cccs3)o2)c2ccccc2)c1 (centres undefined)	21.9
79	O=c1[nH]c(CSc2nnc(-c3ccccc3)n2-c2ccccc2)nc2ccccc12	5.3
80	Nc1ncnc2nc(SCCC(=O)O)[nH]c12	18.0
92	O=C(CSc1nnc(NC(=O)Cc2ccccc2)s1)NCC1CCCO1 (centres undefined)	18.9

# The listing continues:
No.	Structure	Calb biofilm kill
97	Cc1nc2ccccc2n1CC(O)COc1ccccc1Cl (centres undefined)	7.5
98	Cc1ccc(C(=O)NCCc2ccc(S(N)(=O)=O)cc2)cc1[N+](=O)[O-]	17.9
99	CC1CCC2C(=O)N(c3cccc(OS(=O)(=O)c4ccccc4)c3)C(=O)C2C1 (centres undefined)	11.1
100	Cc1nc2c(-c3ccccc3)c[nH]n2c(=O)c1Cc1ccccc1	21.8
101	CCC(=O)N1CCC2(CC1)Oc1ccc(F)cc1C(=O)C21CC(c2cccnc2)=NO1 (centres undefined)	14.2
102	Clc1ccc(SCc2cc(N3CCOCC3)nc(-c3ccccn3)n2)cc1	-34.6
103	CC1(C)CC(=O)c2sc(NS(=O)(=O)c3ccccc3)nc2C1	2.7
104	CCc1ccccc1NC(=O)/C(C#N)=C/c1ccc(Sc2ccccc2)o1	8.7
105	CCOc1ccc(-n2nc(C(=O)N3CCN(CC)CC3)c3ccccc3c2=O)cc1	15.2
106	COc1cc2c(cc1O)[C@@H]1Cc3cc(O)c(OC)cc3[C@H](C2)N1C	11.7
107	CCOC(=O)c1c(C)[nH]c(C(=O)COC(=O)CNC(=O)c2ccc(Cl)cc2Cl)c1C	10.0
108	Cc1ccc(/C=N/NC(=O)C(C)NC(=O)c2ccccc2)cc1 (centres undefined)	6.0
109	CCOC(=O)c1ccc(N2N=C(C)/C(=C/C=C/c3ccco3)C2=O)cc1	-1.1
110	CC(=O)Nc1ccc(Cc2ccc3[nH]c(=O)cc(C)c3c2)cc1	6.9
111	Cc1ccc(-c2cc(Cc3ccc(N(C)C)cc3)c(=O)[nH]n2)cc1	13.6
112	Cc1ccc2nc(N=C(N)N)nc(C)c2c1	13.8
113	CC[N+](C)(CC)CC(O)COCC1COc2ccccc2O1 (centres undefined)	4.1
114	Cc1c(Cl)cccc1NC(=S)NC(=O)CCN1C(=O)c2ccccc2C1=O	-9.4
115	O=c1cc(Nc2cccc(Br)c2)[nH]c(=O)[nH]1	6.0
116	CC(C)C(=O)NC(=S)Nc1sc2c(c1C(N)=O)CCCC2	13.1
117	CC1CCN(CCCOc2ccc(Br)cc2Cl)CC1	-3.6
118	CC(C)CCn1c(N2CCc3ccccc3C2)nc2c1c(=O)[nH]c(=O)n2C	24.5
119	S=c1[nH]nc(Cn2cnc3ccccc32)n1-c1ccccc1Cl	8.2
120	O=[N+]([O-])c1cccc(CSc2nnc3ccccn23)c1	3.1
121	O=C(O)c1cccc(NC(=S)N/N=C/c2ccccc2OCc2ccc(Br)cc2)c1	3.4
122	CCN1CCN(Cc2ccc(NC(=O)c3cc(NC(=O)c4cncc(-c5ccc(C#N)cc5)c4)cc(OC)c3)cc2C(F)(F)F)CC1	19.9
123	COc1ccc2c(C)cc(SCC(=O)N(C)C3CCS(=O)(=O)C3)nc2c1 (centres undefined)	12.5
124	COC(=O)C(NNc1ccc(F)cc1)(NC(=O)c1ccccc1)C(F)(F)F (centres undefined)	24.8
125	CCOc1cc(N2CCOCC2)c(OCC)cc1NC(=O)c1ccc(NC(C)=O)cc1	11.7
126	CC(C)c1ccc(C(=O)NC2=NCCS2)cc1	17.3
127	CSCCC(NC(N)=O)C(=O)Nc1ccc(C)cc1 (centres undefined)	12.5
128	CCC(C)NC(=O)C1CCN(S(=O)(=O)c2cc([N+](=O)[O-])ccc2Cl)CC1 (centres undefined)	15.0
